From PubChem BioAssay
MT1-MMP act inh = blockers of MT1-MMP proenzyme processing, primary screen, HT1080 RFP-PRO-GFP cells, GFP/RFP fluorescence; Matrix metalloproteinase-14 (Homo sapiens), P50281; 0.061% of 360,000 active; GFP/RFP ratio fluorescence, overnight; percent of plate control window, DMSO zero; GFP/RFP ratio change, % at 20 µM;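 active means GFP/RFP ratio change of at least 30% with cell ATP level not reduced by more than half and red fluorescence within 50% of control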; further: strong numbers were not always called active
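Assay system: HT1080 RFP-PRO-GFP cells. Benchmarks: DMSO vehicle wells and RFP-L50D-GFP reporter cell wells. Times: overnight cell settling, then overnight compound exposure, 37 °C, 5% CO2. Compound: 20 µM single dose, 1% DMSO. Read-out basis: GFP/RFP fluorescence ratio.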
Rce1 inh = yeast Rce1p protease inhibitors, primary screen, biochemical, fluorescence, cell-free homogeneous; CAAX prenyl protease 2 (Saccharomyces cerevisiae (strain ATCC 204508 / S288c)), Q03530; yeast membranes, quenched prenylated peptide cleavage fluorescence; calls only; 0.27% of 290,000 active;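 active means fall in fluorescence gain of 50% or more versus controls, with final raw signal at or below 3038400; inconclusive means same 50% fall but final raw signal above 3038400; inactive means fall in fluorescence gain under 50%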;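 further: plate controls were neutral control wells for no effect and wells lacking membranes for full effect; tested at 10 µM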
Target sequence (Q03530 whole entry, looked up): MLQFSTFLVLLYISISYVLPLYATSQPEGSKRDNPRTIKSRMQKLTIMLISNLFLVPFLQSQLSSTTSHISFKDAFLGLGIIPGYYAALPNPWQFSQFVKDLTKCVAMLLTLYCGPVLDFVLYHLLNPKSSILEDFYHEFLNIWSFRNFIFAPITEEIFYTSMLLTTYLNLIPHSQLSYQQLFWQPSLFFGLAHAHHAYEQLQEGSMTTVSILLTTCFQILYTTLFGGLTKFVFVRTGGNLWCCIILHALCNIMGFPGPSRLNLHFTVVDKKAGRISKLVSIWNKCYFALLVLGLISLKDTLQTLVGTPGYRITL
eIF4H FP inh = human eIF4H binding inhibitors, primary screen, translation initiation inhibitor project, biochemical, uHTS, fluorescence polarization | Eukaryotic translation initiation factor 4H (Homo sapiens), Q15056 | eIF4H fluorescence polarization binding assay | inhibition, % at 35 µM | 0.94% of 290,000 active | AID 2012, 2009;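 active means 50% or more with normal probe brightness, or confirmed in later tests; inconclusive means above 50% with abnormal brightness, or retests that disagree; inactive means below 50% or failed in later tests; about a fifth of its hits are not listed in these tables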;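 further: calls also rest on retests at 20 µM and on dose response follow-up; 0% = protein and probe with vehicle and 100% = probe without protein; strong numbers were not always called active; many hits fall short of the cut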
CSC inhib = cancer stem cell viability inhibitors, primary screen, luminescence; AID 2717, 2010; cancer stem cell-like cells viability; 1.1% of 300,000 active; inhibition, % at 7.5 µM;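 active means mean at 75% or more and at least half the replicates too; inconclusive means mean and replicates disagree; tested in HMLE shEcad cells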;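 further: 0% = median of negative and 100% = median of positive control wells; the first replicate is given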
HIV Env fusion = inhibitors of HIV-1 Env-driven cell-cell fusion, primary screen, HeLa-JRFL effector, CEM21 target cells, luciferase; AID 651610, 2012; inhibition, % at 12.3 µM; 1.1% of 360,000 active;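 active means mean replicate inhibition score of at least 50 and every replicate individually at or above 50; inconclusive means only one of the two criteria met; inactive means mean below 50 and not all replicates reaching 50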;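 further: 0% = plate neutral controls and 100% = maraviroc near 300 nM; one replicate is shown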
PABP FP inh = PABP poly(A) RNA binding inhibitors, primary screen, biochemical, fluorescence polarization, uHTS | 1% of 290,000 active | inhibition, % at 35 µM;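 active means 50% or more with normal probe brightness, or confirmed in later tests; inconclusive means above 50% with abnormal brightness, or retests that disagree; inactive means below 50% or failed in later tests; about a fifth of its hits are not listed in these tables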;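 further: calls also rest on retests at 20 µM and on dose response follow-up; controls were probe without protein and protein plus probe with vehicle; some compounds called inactive have numbers as strong as hits; many hits fall short of the cut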
UUG fidelity = modulators of yeast start codon fidelity, primary screen, whole organism, S. cerevisiae, single point, plate reader; S. cerevisiae UUG-firefly luciferase reporter, luminescence/redox ratio; activity score, % at 18.7 µM; 0.13% of 350,000 active; AID 602363, 2012;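 active means replicate mean at a twofold rise or more, about +100% in these data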;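 further: firefly luciferase made from a UUG start codon reports start codon fidelity; reporter light over untreated wells divided by growth signal over untreated wells; some hits fall short of that in this replicate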
eIF4H FP inh retest = further read-out of eIF4H FP inh, marked with its call; inhibition, %; compound at 20 µM; confirmation average;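 mean of two retest wells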
PABP FP inh retest = recorded beside PABP FP inh, whose call it bears; inhibition, %; compound at 20 µM; confirmation repeats;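 mean of two retest wells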
MT1-MMP act inh RFP = recorded beside MT1-MMP act inh, whose call it bears; RFP signal change, %; measured here: RFP expression control read;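 0 = vehicle wells; hits needed this value within 50% of zero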
The depositor's hits bear a star; & = joins results of further samples. An excerpt (hit frequency here may not be typical).

Cc1ccc(C(=O)Oc2cccc(NC(=O)c3cccs3)c2)cc1S(=O)(=O)N1CCOCC1 was read as MT1-MMP act inh 7, eIF4H FP inh 5, CSC inhib 0, PABP FP inh -7, UUG fidelity -16 and MT1-MMP act inh RFP 1.
For Cc1cccc(N(C(=O)CNC(=O)c2ccco2)C(C(=O)NCC2CCCO2)c2ccccc2)c1 (stereo not drawn) the results were MT1-MMP act inh -4, Rce1 inh inactive, eIF4H FP inh -4, CSC inhib -6, HIV Env fusion 15, PABP FP inh -5 and MT1-MMP act inh RFP -3.
`COc1ccc(/C=N/NC(=O)COc2ccc(Cl)cc2Cl)cc1Cn1nc(C)cc1C` gave MT1-MMP act inh 0, Rce1 inh inactive, eIF4H FP inh -4, CSC inhib 12, HIV Env fusion -9, PABP FP inh 7 and MT1-MMP act inh RFP -3.
Cc1ccc2cc(CCNC(=O)c3cccs3)c(=O)[nH]c2c1 was read as MT1-MMP act inh -1, eIF4H FP inh -3, CSC inhib -1, HIV Env fusion -12, PABP FP inh 8, UUG fidelity -24 and MT1-MMP act inh RFP -2.
Screening O=C(NCCc1ccccc1)C1CCC(=O)N1CCc1ccccc1 (stereo not drawn) returned MT1-MMP act inh 4, Rce1 inh inactive, eIF4H FP inh 13, HIV Env fusion 5, PABP FP inh 3, UUG fidelity -4 and MT1-MMP act inh RFP 3.
Cc1ccc(-c2nn3c(C)nnc3s2)cc1NCc1c(F)cccc1Cl was read as MT1-MMP act inh -13, Rce1 inh inactive, eIF4H FP inh -11, CSC inhib 39, HIV Env fusion inconclusive, PABP FP inh -21, UUG fidelity -26 and MT1-MMP act inh RFP -18.
For C#CCn1c(=NC(=O)c2sc3ccccc3c2Cl)sc2cc(S(N)(=O)=O)ccc21 the results were MT1-MMP act inh 1, Rce1 inh inactive, eIF4H FP inh 15, CSC inhib 15, HIV Env fusion 10, PABP FP inh -1, UUG fidelity 10 and MT1-MMP act inh RFP 6.
For CCC(C)(C)n1nnnc1C(c1ccc(OC)cc1)N1CCN(C(=O)c2ccco2)CC1 (stereo not drawn) the results were MT1-MMP act inh -2, Rce1 inh inactive, eIF4H FP inh 2, CSC inhib -4, HIV Env fusion -10, PABP FP inh 4, UUG fidelity -4 and MT1-MMP act inh RFP 1.
For CC(C)CC1C2C(=O)N(c3ccccc3)C(=O)C2ON1c1ccccc1 (stereo not drawn) the results were MT1-MMP act inh 3, Rce1 inh inactive, eIF4H FP inh -1, CSC inhib -7, HIV Env fusion -1, PABP FP inh 12, UUG fidelity -17 and MT1-MMP act inh RFP -1.
COc1ccc(NC(=S)NC(=O)c2cccnc2)cc1 was read as MT1-MMP act inh -2, Rce1 inh inactive, eIF4H FP inh 0, CSC inhib -8, HIV Env fusion -5, PABP FP inh 4, UUG fidelity -25 and MT1-MMP act inh RFP -3.
For O=C(O)Cc1ccc(NS(=O)(=O)c2c(Cl)cccc2Cl)cc1 the results were MT1-MMP act inh 2, Rce1 inh inactive, eIF4H FP inh -2, CSC inhib -12, HIV Env fusion 16, PABP FP inh -1 and MT1-MMP act inh RFP 5.
c1ccc(-c2nc[nH]c2-c2ccccc2)cc1 was read as MT1-MMP act inh 2, Rce1 inh inactive, eIF4H FP inh -7&-4, HIV Env fusion -11, PABP FP inh -6&-6, UUG fidelity -19 and MT1-MMP act inh RFP -5.
`Cc1nc2cc(NC(=O)COc3ccc(C#N)cc3)ccc2n1-c1ccccc1` gave MT1-MMP act inh -3, Rce1 inh inactive, eIF4H FP inh -3, CSC inhib 36, HIV Env fusion -110, PABP FP inh 2, UUG fidelity -13 and MT1-MMP act inh RFP -7.
Screening O=C1OC(CC(=O)N(Cc2nnc(-c3ccccc3Cl)o2)C2CC2)c2ccccc21 (stereo not drawn) returned MT1-MMP act inh -2, CSC inhib 14, UUG fidelity -7 and MT1-MMP act inh RFP 1.
`OC(COc1ccc2c(c1)CCC2)Cn1cnc2ccccc21` (stereo not drawn) gave MT1-MMP act inh -2, Rce1 inh inactive, eIF4H FP inh -14, PABP FP inh 10, UUG fidelity -12 and MT1-MMP act inh RFP -16.
`COc1cc(NC(=O)c2ccccc2)c(OC)cc1NC(C)=O` gave MT1-MMP act inh 1, Rce1 inh inactive, eIF4H FP inh 2, CSC inhib -5, HIV Env fusion -85, PABP FP inh -5, UUG fidelity 9 and MT1-MMP act inh RFP 1.
Screening CCC(C)c1ccc(OCCCCN2CCOCC2)cc1 (stereo not drawn) returned MT1-MMP act inh 1, Rce1 inh inactive, eIF4H FP inh -7, CSC inhib 16, HIV Env fusion -2, PABP FP inh 3, UUG fidelity 2 and MT1-MMP act inh RFP -2.
For CC(=Nc1ccccc1O)c1sc2ccccc2c1O the results were MT1-MMP act inh -158, Rce1 inh inactive, eIF4H FP inh 55, CSC inhib 16, HIV Env fusion -6, PABP FP inh 0, UUG fidelity -2, eIF4H FP inh retest 6, PABP FP inh retest -2 and MT1-MMP act inh RFP -3.
`C[C@H](CO)N1C[C@H](C)[C@@H](CN(C)Cc2ccncc2)Oc2ccc(NC(=O)Cn3cnnn3)cc2C1=O` gave MT1-MMP act inh 4, CSC inhib 2, HIV Env fusion -15, UUG fidelity -2&-20 and MT1-MMP act inh RFP 6.
CCOc1ccccc1NC(=O)c1ccccc1N(C)S(C)(=O)=O was read as MT1-MMP act inh 1, eIF4H FP inh 3, CSC inhib -3, PABP FP inh -6, UUG fidelity -8 and MT1-MMP act inh RFP 5.
For COc1cccc(CN(C)C(=O)CNC(=O)c2sc3ccccc3c2Cl)c1OC the results were MT1-MMP act inh 5, Rce1 inh inactive, CSC inhib -8, HIV Env fusion 6, UUG fidelity -12 and MT1-MMP act inh RFP -6.
`COc1ccc(C(=O)NC(=S)NCc2ccco2)cc1Br` gave MT1-MMP act inh 3, Rce1 inh inactive, eIF4H FP inh -4, CSC inhib 18, HIV Env fusion -10, PABP FP inh -4, UUG fidelity -15 and MT1-MMP act inh RFP 3.
For Cn1c(=O)c2[nH]c(NN=Cc3ccc(Br)cc3)nc2n(C)c1=O the results were MT1-MMP act inh 5, HIV Env fusion 26, UUG fidelity -14 and MT1-MMP act inh RFP 3.
`COc1ccc(C(=O)Cn2nnc(-c3ccccc3NC(=O)C3CC3)n2)cc1` gave Rce1 inh inactive, eIF4H FP inh 8, CSC inhib -14 and PABP FP inh 0.
CCOc1cc(NC(=O)Nc2ccccc2)c(OCC)cc1NC(=O)CC was read as MT1-MMP act inh 2, Rce1 inh inactive, eIF4H FP inh -2, CSC inhib -11, HIV Env fusion -68, PABP FP inh -1, UUG fidelity -4 and MT1-MMP act inh RFP 4.
Screening CC(C)Cc1nc2sc3c(NCc4ccco4)ncnc3c2c2c1COC(C)(C)C2 returned MT1-MMP act inh -5, Rce1 inh inactive, eIF4H FP inh -14, CSC inhib -11, HIV Env fusion -1, PABP FP inh -13, UUG fidelity -18 and MT1-MMP act inh RFP -9.
For CCc1cc(=O)oc2cc3occ(C)c3cc12 the results were MT1-MMP act inh -3, Rce1 inh inactive, eIF4H FP inh 39, CSC inhib 29, HIV Env fusion -13, PABP FP inh 2, UUG fidelity -1 and MT1-MMP act inh RFP 1.
For C[C@H](CO)N1C[C@H](C)[C@@H](CN(C)C(=O)CCC(F)(F)F)OCc2cnnn2CCCC1=O the results were MT1-MMP act inh 1, HIV Env fusion 20, UUG fidelity -10&-7&2 and MT1-MMP act inh RFP 3.
Screening O=C(COC(=O)c1ccc(NS(=O)(=O)c2cccs2)cc1O)NC1CCCCC1 returned MT1-MMP act inh 1, Rce1 inh inactive, eIF4H FP inh -1, CSC inhib -12, HIV Env fusion 1, PABP FP inh -7, UUG fidelity -5 and MT1-MMP act inh RFP -10.
Screening COc1ccc(NC(=O)N2CCCC2C(=O)Nc2ccccc2F)cc1 (stereo not drawn) returned MT1-MMP act inh -1, eIF4H FP inh 7, CSC inhib -1, HIV Env fusion 4, PABP FP inh 4, UUG fidelity -20 and MT1-MMP act inh RFP -1.
Cc1ccc(S(=O)(=O)N(CC(O)CN2C(=O)NC(C)(C)C2=O)c2cccc([N+](=O)[O-])c2)cc1 (stereo not drawn) was read as MT1-MMP act inh 2, Rce1 inh inactive, eIF4H FP inh -17, HIV Env fusion 8, PABP FP inh 9, UUG fidelity -12 and MT1-MMP act inh RFP 5.
For CCOc1ccc(N2C(=O)CC(N(Cc3ccco3)C(C)=O)C2=O)cc1 (stereo not drawn) the results were MT1-MMP act inh 3, Rce1 inh inactive, eIF4H FP inh -6, CSC inhib -4, HIV Env fusion 4, PABP FP inh -4 and MT1-MMP act inh RFP 7.
For Cn1cccc1/C=C(\C#N)c1ccccc1 the results were MT1-MMP act inh 3, Rce1 inh inactive, eIF4H FP inh -4, CSC inhib -14, HIV Env fusion -22, PABP FP inh -3, UUG fidelity -9 and MT1-MMP act inh RFP 7.
N#CCSc1ccccc1NC(=O)CN1C(=O)NC(CCc2ccccc2)C1=O (stereo not drawn) was read as MT1-MMP act inh -12, HIV Env fusion -2, UUG fidelity -7 and MT1-MMP act inh RFP 3.
`O=C(COc1ccc(Cl)cc1)Nc1ccc(CN2CCOCC2)cc1` gave MT1-MMP act inh 2, CSC inhib 26, UUG fidelity -4 and MT1-MMP act inh RFP 0.
For O=C(COC(=O)c1cccc(S(=O)(=O)N2CCCC2)c1)NCc1ccccc1 the results were MT1-MMP act inh 2, Rce1 inh inactive, eIF4H FP inh -3, CSC inhib -8, HIV Env fusion -1, PABP FP inh -5 and MT1-MMP act inh RFP 6.
For CCCc1cc(=O)[nH]c(SCC(=O)c2c(C)[nH]c3ccccc23)n1 the results were Rce1 inh inactive, eIF4H FP inh -1, CSC inhib -8, HIV Env fusion -1 and PABP FP inh 2.
Screening O=C(CCS(=O)(=O)c1ccc(Br)cc1)NCc1cccs1 returned MT1-MMP act inh -3, Rce1 inh inactive, eIF4H FP inh 30, CSC inhib -16, PABP FP inh 6, UUG fidelity -7 and MT1-MMP act inh RFP 2.
Screening COCCNC(=S)N1CCN(C)CC1 returned MT1-MMP act inh -2, Rce1 inh inactive, eIF4H FP inh 15, CSC inhib -6, HIV Env fusion 4, PABP FP inh 17, UUG fidelity -10 and MT1-MMP act inh RFP 1.
CC1CCc2c(sc3nc(SCC(=O)NCc4ccco4)nc(N)c23)C1 (stereo not drawn) was read as MT1-MMP act inh 4, Rce1 inh inactive, eIF4H FP inh -3, CSC inhib 0, PABP FP inh 24, UUG fidelity -21 and MT1-MMP act inh RFP -8.
`O=C(NC1CCCCC1)C(c1cc2c(cc1[N+](=O)[O-])OCO2)N1CCCCC1` (stereo not drawn) gave Rce1 inh inactive, eIF4H FP inh 43, CSC inhib 2 and PABP FP inh -5.

An excerpt from the list above, for reference:
`COc1ccc(C(=O)Cn2nnc(-c3ccccc3NC(=O)C3CC3)n2)cc1` gave Rce1 inh inactive, eIF4H FP inh 8, CSC inhib -14 and PABP FP inh 0.
CCOc1cc(NC(=O)Nc2ccccc2)c(OCC)cc1NC(=O)CC was read as MT1-MMP act inh 2, Rce1 inh inactive, eIF4H FP inh -2, CSC inhib -11, HIV Env fusion -68, PABP FP inh -1, UUG fidelity -4 and MT1-MMP act inh RFP 4.
